MARV entry inh: blocks Marburg virus binding to or entry into cells | Marburg virus pseudotyped entry inhibition, cell reporter; control for the full effect not named in the record; about a third of the inactives were read at about 46 µM | 1.8% of 300,000 active | AID 540276 | Potency, µM (top dose mostly 37.8 µM), for the others: top-dose activity change, negative = inhibition, hits mostly inhibitors; active = well fitted inhibition curve with a large enough effect; inconclusive = small, poorly fitted or top-dose-only effect, or effect the other way; inactive = flat fitted curve, though single readings scatter; tested in HEK293 cells; about a fifth of its hits are not listed in these tables; note: % is set by controls: 0 for no effect and ±100 for the full control effect; luciferase read-out
StopGo reporter: lowers the luciferase signal of an FMDV 2A StopGo reporter; Potency, µM (top dose mostly 57.9 µM), for inactives: at the highest dose signal change, negative = less light; human cells with a luciferase reporter of 2A StopGo recoding; control for the full effect not named in the record; 1.2% of 410,000 active; active = well fitted falling curve with a large enough effect; inconclusive = small, poorly fitted or top-dose-only effect; inactive = no such curve, though single readings can be large or run the other way; tested in HEK293T cells; note: % is set by controls: 0 for no effect and ±100 for the full control effect; nearly all actives have a fitted effect of over 45% in size; luciferase light after 4 h
Cruzain noTriton: cruzain (T. cruzi) inhibition without detergent | Potency, µM, for inactives: max response, negative = inhibition, hits mostly inhibitors | 2.3% of 200,000 active | purified cruzain, Z-FR-AMC fluorescence, no detergent; active = well fitted curve in the direction sought with a large enough effect; inconclusive = small, poorly fitted or top-dose-only effect, or another doubt; inactive = no such curve, though single readings can be large; an effect the other way counts as inactive or inconclusive;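 note: plate controls were enzyme without inhibitor for no effect and buffer without enzyme for full effect; nearly all actives have a fitted effect of over 40% in size; top concentration of the series not given in the record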
Target sequence (P25779 123-467 limits assumed): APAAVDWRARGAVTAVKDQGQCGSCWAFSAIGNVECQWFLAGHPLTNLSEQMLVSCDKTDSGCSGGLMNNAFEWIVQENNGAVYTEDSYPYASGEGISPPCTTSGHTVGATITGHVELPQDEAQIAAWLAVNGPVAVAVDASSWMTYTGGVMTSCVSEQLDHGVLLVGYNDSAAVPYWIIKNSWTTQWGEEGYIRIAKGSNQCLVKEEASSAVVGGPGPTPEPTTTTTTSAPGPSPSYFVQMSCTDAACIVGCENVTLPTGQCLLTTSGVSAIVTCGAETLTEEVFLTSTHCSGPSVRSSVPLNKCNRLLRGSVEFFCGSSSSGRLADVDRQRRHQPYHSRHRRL
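Purified cruzain at 1.5 nM, pre-incubated 15 min with compound at room temperature in 100 mM sodium acetate pH 5.5, 5 mM DTT, 0.00005% Triton X-100. Reaction started with 2 uM Z-FR-AMC; AMC fluorescence increase over 60 s gives rate.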
NS1 inh: inhibitors of influenza NS1 protein function. S. cerevisiae slowed by influenza A NS1, growth recovery by OD600. Potency, µM (highest dose often 46.1 µM), without a hit: top-dose activity, positive = more growth. 0.4% of 270,000 active. AID 2326; note: actives are rising curves; nearly all actives have a fitted effect of over 50% in size
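Growth recovery, yeast-based: influenza A NS1 expressed in S. cerevisiae causes slow growth, and suppressors are detected by OD600. The parent strain without NS1 is used as positive control.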
Lassa entry inh: Lassa virus entry inhibition; Lassa virus pseudotype entry inhibition, cell reporter; control for the full effect not named in the record; Potency, µM (titrated, usually from 37.9 µM), without a hit: at the highest dose activity change, negative = inhibition, usual class: inhibitors; 1.2% of 300,000 active; AID 540256; active means well fitted inhibition curve with a large enough effect; inconclusive means small, poorly fitted or top-dose-only effect, or effect the other way; inactive means flat fitted curve, though single readings scatter; tested in HEK293 cells; note: % is set by controls: 0 for no effect and ±100 for the full control effect; nearly all actives have a fitted effect of over 50% in size; luciferase read-out
Cruzain inh Det: blocks cruzain activity in presence of Triton detergent | purified cruzain, Z-FR-AMC fluorescence, 0.01% Triton | Potency, µM, inactives show max response, negative = inhibition, usual class: inhibitors | 0.43% of 200,000 active | P25779; active = well fitted curve in the direction sought with a large enough effect; inconclusive = small, poorly fitted or top-dose-only effect, or another doubt; inactive = no such curve, though single readings can be large; an effect the other way counts as inactive or inconclusive;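 note: plate controls were neutral wells for no effect and buffer without enzyme for full effect; nearly all actives have a fitted effect of over 40% in size; top concentration of the series not given in the record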
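Enzyme 1.5 nM, Z-FR-AMC 2 uM, NaOAc 100 mM pH 5.5, DTT 5 mM, Triton X-100 0.01%; 15 min RT compound preincubation; kinetic ex360/em450, 60 s delta.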
SARS PLpro yeast: SARS-CoV PLP inhibition in yeast; S. cerevisiae expressing SARS-CoV PLpro, growth rescue; control for the full effect not named in the record; Potency, µM (highest dose often 32.9 µM), for the others: at the top dose activity, positive = growth rescue; 0.19% of 330,000 active; AID 485353; note: 0% is about no effect; nearly all actives have a fitted effect of over 55% in size; growth read by luminescence after 48 h
RE007 growth inh: less growth of the S. pombe RE007 Vpr strain. S. pombe RE007 Vpr strain, BacTiter-Glo ATP luminescence, 24 h; control for the full effect not named in the record. Potency, µM (highest dose often 92.2 µM), for inactives: top-dose activity change, negative = less growth. 0.21% of 360,000 active. AID 651644; active = well fitted falling curve with a large enough effect; inconclusive = small, poorly fitted or top-dose-only effect; inactive = no such curve, though single readings can be large or run the other way;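 note: % is set by controls: 0 for no effect and ±100 for the full control effect; nearly all actives have a fitted effect of over 50% in size; the assay follows cell death caused by Vpr and the record does not say whether a fall means rescue or toxicity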
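Fission yeast RE007 carrying one integrated HIV-1 vpr copy, seeded at OD 0.01 in PMG+AL medium with 23 nL pinned compound. Grown 24 h at 30 degrees; viability read by BacTiter-Glo luminescence after 5 min.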
The depositor's hits bear a star; ? = inconclusive; · = no result given; & = joins results of further samples; [ ] = remark or other dose. Unless noted, calls come from the whole dose curve; as a rule, active means well fitted rising curve with a large enough effect; inconclusive means small, poorly fitted or top-dose-only effect; inactive means no such curve, though single readings can be large or run the other way. Potency is the fitted concentration of half-maximal effect.

No.	Structure	MARV entry inh	StopGo reporter	Cruzain noTriton	NS1 inh	Lassa entry inh	Cruzain inh Det	SARS PLpro yeast	RE007 growth inh
1	CN(C)C(=O)Oc1c(Cl)cc(Cl)c2cccnc12	6%[46.1 µM]	-20%	·	-1%	4%	·	1%	27%
2	CCOc1cc(C(=O)Nc2ccc(S(=O)(=O)NC3=NCCCCC3)cc2)cc(Br)c1OC	?	-4%	·	·	-1%	·	2%	4%
3	O=C(CCNC(=O)c1ccccc1Cl)NCC12CC3CC(CC(C3)C1)C2	?	-22%	4%	-3%	5%	-2.3%	14%	-7%
4	CN(C(=O)CSc1nnc2ccccn12)c1c(N)n(Cc2ccccc2)c(=O)[nH]c1=O	-1%	-20%	-2%	7%	?	-0.3%	-13%	-3%
5	Cc1c(C(=O)NCc2cccs2)oc2ccc(S(=O)(=O)N3CCOCC3)cc12	?	?	11%	-10%	-17%	-5.2%	3%	-11%
6	CC1=NN(c2ccc(S(=O)(=O)O)cc2C)C(=O)C1	-3%[46.1 µM]	-5%	·	3%	20%	·	0%	3%
7	COc1ccc(-c2nn3c(=O)c(C)nnc3s2)cc1	·	36%[activator]	·	0%	·	·	-1%	10%
8	CC(C)CN1CCC(=O)N(CCSc2ccccc2)CC1	·	0%	·	10%	·	·	6%	-15%
9	O=C(c1ccccc1)C1CCN(c2ncccc2[N+](=O)[O-])CC1	1%[46.1 µM]	1%	·	-3%	?	·	-1%	-6%
10	CCOC(=O)c1cc(-c2ccc(OC)cc2)n(CCC(=O)NCCc2ccc(OCC)c(OCC)c2)c1C	·	?	5%	·	-27%[46.1 µM]	-3.2%	·	·
11	O=S(=O)(NC1CCCC1)c1ccc(S(=O)(=O)N(Cc2cccs2)CC2CCCO2)cc1 (stereo not drawn)	?	11%	-4%	-14%	?	4.0%	-1%	13%
12	COc1ccc(-c2nc3ccc(NS(=O)(=O)c4ccccc4)cc3o2)cc1	-1%[46.1 µM]	-13%	-28%	·	-1%[46.1 µM]	-7.9%	·	·
13	Clc1ccc2nc(COc3ccccc3)[nH]c2c1	?	9%	·	-85%	?	·	-15%	57%
14	Cc1ccc2nc3c(cc(C#N)c(=O)n3-c3nnc(SCc4ccc(F)cc4)s3)c(=O)n2c1	?	13%	0%	·	?	1.4%	·	·
15	Cc1sc(NC(=O)CCCC(=O)O)c(C(N)=O)c1-c1ccccc1	?	?	·	·	?	·	-1%	-1%

The results go on.
No.	Structure	MARV entry inh	StopGo reporter	Cruzain noTriton	NS1 inh	Lassa entry inh	Cruzain inh Det	SARS PLpro yeast	RE007 growth inh
16	O=C(CNS(=O)(=O)c1cccc2nsnc12)NCc1ccc(Cl)cc1	-24%&-24%[46.1 µM]	19%	5%	-9%	-22%	-0.8%	0%	-11%
17	NC(=O)c1c(Nc2nc3c(F)cccc3s2)sc2c1CCCC2	2%	-3%	4%	-36%	?	-11%	-78%	?
18	CC1CN(C(=O)c2ccc(COc3ccc(C(C)C)cc3)o2)CC(C)O1 (stereo not drawn)	·	18%	·	6%	·	·	0%	0%
19	CCC(=O)N1CCc2cc(S(=O)(=O)CCC(=O)N3CCN(c4ccccc4)CC3)ccc21	-2%[46.1 µM]	-27%	·	-1%	14%[46.1 µM]	·	14%	3%
20	CCCCOc1ccc(C(=O)N/C(=C\c2ccc(Br)cc2)C(=O)NC2CCCCC2)cc1	·	5%	13%	·	-21%[46.1 µM]	-0.7%	·	·
21	COc1ccccc1NS(=O)(=O)c1ccc(C(=O)OCC(=O)NCc2ccco2)cc1	-3%	-14%	-9%	7%	2%	-8.2%	-1%	0%
22	O=C(Cn1ncc2c1-c1ccccc1OC2)Nc1ccc(Cl)cn1	·	-6%	-5%	-7%	·	-4.0%	-9%	-5%
23	Brc1cc2c(cc1/C=N/Nc1nc(N3CCCC3)nc(N3CCOCC3)n1)OCO2	-40%	?	4%	6%	-16%	-4.1%	-1%	-10%
24	Cc1cccc(Nc2c([N+](=O)[O-])c(=O)oc3ccccc23)c1	?	-3%	·	-2%	-30%[46.1 µM]	·	0%	3%
25	CC(C)NC(=O)Cn1cc(C(=O)COc2ccccc2)c2ccccc21	-17%[46.1 µM]	-4%	·	15%	27%[46.1 µM]	·	0%	-4%
26	CCOc1cccc(C2c3[nH]c4ccccc4c3CCN2C(=O)Cc2cccc(OCC)c2OCC)c1 (stereo not drawn)	?	-7%	-13%	·	-12%[46.1 µM]	-3.8%	·	·
27	COc1ccc(CN2CCN(C(=O)c3cccc(OC)c3OC)CC2)cc1OC	-7%[46.1 µM]	0%	·	·	-3%	·	0%	-6%
28	Cc1ccc(SCC(=O)Nc2cccc(-c3nnc(-c4ccco4)o3)c2)cc1	-23%	-5%	-1%	-13%	-7%	-1.8%	-10%	-2%
29	CC(C)C(OC(=O)c1ccco1)C(=O)NCc1ccc2c(c1)OCO2 (stereo not drawn)	-20%[46.1 µM]	-3%	·	-2%	?	·	1%	-11%
30	O=C(NCC(c1ccco1)N1CCc2ccccc21)c1ccc([N+](=O)[O-])cc1 (stereo not drawn)	?	?	·	·	5%	·	-4%	6%

Compound profiles, from the list above.
Record of O=C(Cn1ncc2c1-c1ccccc1OC2)Nc1ccc(Cl)cn1 → MARV entry inh = ·; StopGo reporter = -6%; Cruzain noTriton = -5%; NS1 inh = -7%; Lassa entry inh = ·; Cruzain inh Det = -4.0%; SARS PLpro yeast = -9%; RE007 growth inh = -5%
Record of Cc1ccc(SCC(=O)Nc2cccc(-c3nnc(-c4ccco4)o3)c2)cc1 → MARV entry inh = -23%; StopGo reporter = -5%; Cruzain noTriton = -1%; NS1 inh = -13%; Lassa entry inh = -7%; Cruzain inh Det = -1.8%; SARS PLpro yeast = -10%; RE007 growth inh = -2%

Reformatted screen by screen: 2 of the compounds above.
30) O=C(NCC(c1ccco1)N1CCc2ccccc21)c1ccc([N+](=O)[O-])cc1 (stereo not drawn)
26) CCOc1cccc(C2c3[nH]c4ccccc4c3CCN2C(=O)Cc2cccc(OCC)c2OCC)c1 (stereo not drawn)

Assay by compound	30	26
MARV entry inh	?	?
StopGo reporter	?	-7%
Cruzain noTriton	·	-13%
NS1 inh	·	·
Lassa entry inh	5%	-12%[46.1 µM]
Cruzain inh Det	·	-3.8%
SARS PLpro yeast	-4%	·
RE007 growth inh	6%	·

Next part
No.	Structure	MARV entry inh	StopGo reporter	Cruzain noTriton	NS1 inh	Lassa entry inh	Cruzain inh Det	SARS PLpro yeast	RE007 growth inh
31	COc1ccccc1C1c2c(-c3ccc(Cl)cc3)n[nH]c2C(=O)N1c1ccc(C)cc1 (stereo not drawn)	?	?	?	·	?	-4.7%	·	·
32	CCOC(=O)N1CCN(C(=O)CN(c2cc(Cl)ccc2OC)S(=O)(=O)c2ccccc2)CC1	7%&7%	29%	?	-18%	?	2.7%	-1%	-1%
33	CCC(=O)Nc1ccc(Cl)c(-c2nc3ccccc3[nH]2)c1	-2%[46.1 µM]	-22%	-8%	·	6%[46.1 µM]	-2.2%	·	·
34	COC(=O)c1cc(NC(=O)N2c3ccccc3Sc3ccccc32)cc(C(=O)OC)c1	?	-7%	-26%	-8%	?	0.4%	-1%	-13%
35	COc1ccc(COC(=O)N/N=C(\C)CC(=O)Nc2ccc(Cl)cn2)cc1	6%[46.1 µM]	13%	·	-4%	·	·	1%	3%
36	CCCCCNC(=O)CCCCCn1c(=O)[nH]c2ccsc2c1=O	?	44%[activator]	3%	·	20%[46.1 µM]	-0.5%	·	·
37	N#CCSc1ccc(S(=O)(=O)N2CCOCC2)cn1	16%[46.1 µM]	-6%	·	·	13%[46.1 µM]	·	26%	6%
38	O=C(NC(Cc1c[nH]c2ccccc12)C(=O)NCCCN1CCOCC1)c1cccs1 (stereo not drawn)	?	2%	·	3%	·	·	0%	-15%
39	CCN1C(=O)C(CC(=O)Nc2ccc(OC)cc2)N(CCc2ccccc2)C1=S (stereo not drawn)	?	-13%	·	·	?	·	-9%	27%
40	NC(=O)c1ncc(C(F)(F)F)cc1Cl	-1%[46.1 µM]	-5%	·	·	15%[46.1 µM]	·	0%	-7%
41	COCCCNC(=O)/C(C#N)=C/c1c(N2CCN(c3cccc(Cl)c3)CC2)nc2c(C)cccn2c1=O	?	-21%	·	3%	?	·	-3%	-13%
42	O=P(O)(COc1ccccc1)COc1ccccc1	-7%	13%	0%	-2%	4%	7.2%	-2%	14%
43	COc1ccc(-n2c(C)cc(C(=O)CN3C(=O)NC4(CCCc5sccc54)C3=O)c2C)cc1 (stereo not drawn)	?	-9%	?	15%	-29%	-3.3%	-17%	-10%
44	COc1ccccc1N(CC(O)COc1ccccc1C)S(=O)(=O)c1ccccc1 (stereo not drawn)	-23%	0%	?	-18%	?	-10%	10%	16%

Part of the list above, as labelled records.
#40 NC(=O)c1ncc(C(F)(F)F)cc1Cl
  MARV entry inh = -1%[46.1 µM]	StopGo reporter = -5%	Cruzain noTriton = ·	NS1 inh = ·	Lassa entry inh = 15%[46.1 µM]	Cruzain inh Det = ·	SARS PLpro yeast = 0%	RE007 growth inh = -7%
#41 COCCCNC(=O)/C(C#N)=C/c1c(N2CCN(c3cccc(Cl)c3)CC2)nc2c(C)cccn2c1=O
  MARV entry inh = ?	StopGo reporter = -21%	Cruzain noTriton = ·	NS1 inh = 3%	Lassa entry inh = ?	Cruzain inh Det = ·	SARS PLpro yeast = -3%	RE007 growth inh = -13%
#43 COc1ccc(-n2c(C)cc(C(=O)CN3C(=O)NC4(CCCc5sccc54)C3=O)c2C)cc1 (stereo not drawn)
  MARV entry inh = ?	StopGo reporter = -9%	Cruzain noTriton = ?	NS1 inh = 15%	Lassa entry inh = -29%	Cruzain inh Det = -3.3%	SARS PLpro yeast = -17%	RE007 growth inh = -10%
#33 CCC(=O)Nc1ccc(Cl)c(-c2nc3ccccc3[nH]2)c1
  MARV entry inh = -2%[46.1 µM]	StopGo reporter = -22%	Cruzain noTriton = -8%	NS1 inh = ·	Lassa entry inh = 6%[46.1 µM]	Cruzain inh Det = -2.2%	SARS PLpro yeast = ·	RE007 growth inh = ·
